VACV mCherry inh = vaccinia inhibition (mCherry reporter); Vaccinia virus mCherry reporter infection, fluorescence; about a quarter of the inactives have no number; Potency, µM (top dose mostly 36.5 µM), for the others: at the highest dose activity change, negative = inhibition, actives largely listed as inhibitors; 310,000 tested, 0.63% active; active = well fitted inhibition curve with a large enough effect; inconclusive = small, poorly fitted or top-dose-only effect; inactive = no such curve, though single readings can be large or run the other way; tested in A549 cells; note: nearly all actives have a fitted effect of over 35% in size; inactives centre near -10
Vaccinia Venus = vaccinia inhibition (Venus reporter) | Vaccinia virus Venus reporter expression, fluorescence | Potency, µM (titrated, usually from 36.5 µM), for inactives: at the top dose activity change, negative = inhibition, most hits filed as inhibitors | 330,000 tested, 0.46% active; active means well fitted inhibition curve with a large enough effect; inconclusive means small, poorly fitted or top-dose-only effect; inactive means no such curve, though single readings can be large or run the other way; tested in A549 cells; note: nearly all actives have a fitted effect of over 30% in size; inactives centre near -10
The depositor's hits bear a star; i = inactive; ? = inconclusive; . = no result given; & = joins results of further samples; [ ] = remark or other dose. % is set by controls: 0 for no effect and ±100 for the full control effect; potency is the fitted concentration of half-maximal effect. Hits appear at their usual frequency. About 0.87% of those tested had a hit in this group.

Under each structure – VACV mCherry inh	Vaccinia Venus
- CCOc1ccc(CCNS(=O)(=O)c2cc(Br)cc3c2N(C(C)=O)CC3)cc1OCC
    3.5%	1.4%
- CCOc1ccc(CCNC(=O)C2CCN(C(=O)N(C)C)CC2)cc1OCC
    -2.5%	-1.6%
- CCc1nnc(NC(=O)c2ccc(OCc3c(C)noc3C)c(OC)c2)s1
    -6.3%	-20.7%
- O=C1c2ccccc2C(=O)N1CCc1nc(-c2cccnc2)no1
    -12.4%	-8.0%
- C[C@@H](NC(=O)Cn1ccc(NC(=O)OCc2ccccc2)nc1=O)c1cccc2ccccc12
    i	-28.0%
- Cc1cc(Br)ccc1OCCNCc1ccccc1
    -14.2%	-32.3%
- O=C(O)c1ccccc1C=NNc1ccc([N+](=O)[O-])cn1
    -21.1%	-0.1%
- O=C(/C=C/c1ccc(Br)cc1)NCc1cccs1
    -7.2%	-9.4%
- COC(=O)c1cc2c([nH]c1=O)CC(c1ccccc1)CC2=O (stereo not given)
    -25.7%	-9.0%
- Cc1cc(O)ccc1NS(=O)(=O)c1ccc2c3c(cccc13)C(=O)N2
    ?	4.0%
- NC(=O)c1cccc(-c2coc3c(C(=O)NC4CCCCC4)cccc23)c1
    1.3%	-24.9%
- CCCC#Cc1cnc2c(c1)C(=O)N([C@H](C)CO)C[C@@H](C)[C@@H](CN(C)C(=O)Nc1cccc(F)c1)O2
    -1.0%	-25.9%
- CCCS(=O)(=O)NC(=O)C1(C)CCN(C(=O)c2cccc3ccccc23)C1 (stereo not given)
    -8.7%	6.5%
- C=CCNC(=O)CN1CCC(NC(=O)c2ccco2)CC1
    -2.8%	-8.1%
- Cc1oc(C(C)(C)C)cc1C(N)=O
    -6.6%[7.34 µM]	?

Reprinted from the part before: 2 compounds; new compounds follow.
Under each structure – VACV mCherry inh	Vaccinia Venus
- C=CCNC(=O)CN1CCC(NC(=O)c2ccco2)CC1
    -2.8%	-8.1%
- Cc1oc(C(C)(C)C)cc1C(N)=O
    -6.6%[7.34 µM]	?
- CSc1nc2ccc(NC(=O)c3ccc(=O)n(C)n3)cc2s1
    -12.1%	-4.9%
- CC1(c2ccc(Cl)cc2)NC(=O)N(CC(=O)Nc2cccnc2Cl)C1=O (stereo not given)
    i	-1.4%
- COc1ccc(CS(=O)/C(Cl)=C(/Cl)C(=O)Nc2ccc(OC)nc2)cc1 (stereo not given)
    3.98µM*	5.62µM*
- COc1ccc2[nH]c(CN3CCC(CO)(CCOc4ccccc4)CC3)c(C)c2c1
    -28.6%	-10.9%
- CCc1cc(C)cc(OCCNC(=O)c2cncc(Br)c2)c1
    .	?
- Cc1csc(NC(=O)CCC(=O)c2cccs2)n1
    7.8%	6.8%
- NS(=O)(=O)c1cccc(NC(=O)c2cc(=O)c3ccccc3o2)c1
    -10.4%	-8.3%
- O=C(c1ccc2c(c1)N(Cc1cccc(Cl)c1)C(=O)c1ccccc1S2=O)N1CCC(Cc2ccccc2)CC1 (stereo not given)
    -15.2%	-12.6%
- COc1ccc(C2(CNS(=O)(=O)c3ccccc3)CCOCC2)cc1
    i	-9.6%
- O=C(NC1CCCCC1)C(c1ccncc1)n1c(=O)c(-c2cc3ccccc3[nH]2)nc2ccccc21 (stereo not given)
    ?	?
- CCOc1ccc(C(=O)Cc2ccc3oc(C(=O)O)cc3c2)c(O)c1
    8.7%	18.1%
- O=C(O)C1Cc2[nH]cnc2C(c2ccc(F)cc2)N1 (stereo not given)
    -14.7%	6.5%
- O=C(/C=C/c1ccco1)NCc1ccc(F)cc1
    -2.9%	-3.5%
- CCC1CCCCN1CCCNC(=O)c1cn(CC)c2ccc(S(=O)(=O)N(C)C3CCCCC3)cc2c1=O (stereo not given)
    -15.7%	-8.8%
- CC(=O)N(c1ccccc1)c1nc2ccccc2s1
    -19.8%	-3.3%

The results go on.
Under each structure – VACV mCherry inh	Vaccinia Venus
- Cc1cccc(-c2nnc(SCC(=O)Nc3ccc(C)c(C)c3)o2)c1
    -22.0%	-28.4%
- COc1ccc(N=Cc2c(OC)ccc3ccccc23)cc1
    -22.4%	-0.2%
- CC(=O)NNc1nc2ccccc2s1
    -13.7%	-3.2%
- COc1ccc(C(=O)c2cn(Cc3ccc(F)cc3)c3c(F)cc(F)cc3c2=O)cc1
    -17.7%	-5.4%
- CN(C)S(=O)(=O)n1cc(/C=C(\NC(=O)c2ccccc2F)C(=O)NCCN2CCOCC2)c2ccccc21
    -4.9%	-11.5%
- Cc1noc(NS(=O)(=O)c2ccc(NC(=O)CSc3ncccn3)cc2)c1C
    0.5%	-7.4%
- O=C(NCCN1CCN(C(=O)c2cc3ccccc3oc2=O)CC1)c1cc2ccccc2oc1=O
    .	-18.8%
- CCCCc1ccc(NC(=S)NN2CCOCC2)cc1
    -17.1%	-16.0%
- CCCCc1c(C)nc2ccc(C(=O)OCC)cc2c1Cl
    -12.4%	-13.7%
- CCOC(=O)[C@]12CCC=C1N(Cc1ccc3c(c1)OCO3)C(=O)[C@H](CC(=O)NCc1cccc3ccccc13)C2
    -5.5%	-28.6%
- O=C1C(=Cc2cccn2-c2ccccc2)C(=O)c2ccccc21
    -4.1%	4.5%
- Cc1ccc(S(=O)(=O)N2CCOCC2)cc1NC(=O)COc1ncnc2ccccc12
    -10.8%	-14.6%
- Cc1ccc(S(=O)(=O)n2nc(C)c(S(=O)(=O)N3CCCCC3)c2C)cc1
    1.6%	-5.9%&-0.2%
- COc1ccc2c(Cl)c(-c3nnc4n3CCCCC4)sc2c1
    .	-18.4%
- O=[N+]([O-])c1cc(S(=O)(=O)N2CCCC2)ccc1O
    -10.6%	-8.8%

As a working copy, part of the list above:
Under each structure – VACV mCherry inh	Vaccinia Venus
- O=C(NC1CCCCC1)C(c1ccncc1)n1c(=O)c(-c2cc3ccccc3[nH]2)nc2ccccc21 (stereo not given)
    ?	?
- CCOc1ccc(C(=O)Cc2ccc3oc(C(=O)O)cc3c2)c(O)c1
    8.7%	18.1%
- O=C(O)C1Cc2[nH]cnc2C(c2ccc(F)cc2)N1 (stereo not given)
    -14.7%	6.5%
- O=C(/C=C/c1ccco1)NCc1ccc(F)cc1
    -2.9%	-3.5%
- CCC1CCCCN1CCCNC(=O)c1cn(CC)c2ccc(S(=O)(=O)N(C)C3CCCCC3)cc2c1=O (stereo not given)
    -15.7%	-8.8%
- CC(=O)N(c1ccccc1)c1nc2ccccc2s1
    -19.8%	-3.3%
- Cc1cccc(-c2nnc(SCC(=O)Nc3ccc(C)c(C)c3)o2)c1
    -22.0%	-28.4%
- COc1ccc(N=Cc2c(OC)ccc3ccccc23)cc1
    -22.4%	-0.2%
- CC(=O)NNc1nc2ccccc2s1
    -13.7%	-3.2%
- COc1ccc(C(=O)c2cn(Cc3ccc(F)cc3)c3c(F)cc(F)cc3c2=O)cc1
    -17.7%	-5.4%
- CN(C)S(=O)(=O)n1cc(/C=C(\NC(=O)c2ccccc2F)C(=O)NCCN2CCOCC2)c2ccccc21
    -4.9%	-11.5%
- Cc1noc(NS(=O)(=O)c2ccc(NC(=O)CSc3ncccn3)cc2)c1C
    0.5%	-7.4%
- O=C(NCCN1CCN(C(=O)c2cc3ccccc3oc2=O)CC1)c1cc2ccccc2oc1=O
    .	-18.8%
- CCCCc1ccc(NC(=S)NN2CCOCC2)cc1
    -17.1%	-16.0%
- CCCCc1c(C)nc2ccc(C(=O)OCC)cc2c1Cl
    -12.4%	-13.7%
- CCOC(=O)[C@]12CCC=C1N(Cc1ccc3c(c1)OCO3)C(=O)[C@H](CC(=O)NCc1cccc3ccccc13)C2
    -5.5%	-28.6%
- O=C1C(=Cc2cccn2-c2ccccc2)C(=O)c2ccccc21
    -4.1%	4.5%
- Cc1ccc(S(=O)(=O)N2CCOCC2)cc1NC(=O)COc1ncnc2ccccc12
    -10.8%	-14.6%
- Cc1ccc(S(=O)(=O)n2nc(C)c(S(=O)(=O)N3CCCCC3)c2C)cc1
    1.6%	-5.9%&-0.2%
- COc1ccc2c(Cl)c(-c3nnc4n3CCCCC4)sc2c1
    .	-18.4%
- O=[N+]([O-])c1cc(S(=O)(=O)N2CCCC2)ccc1O
    -10.6%	-8.8%

More entries.
Under each structure – VACV mCherry inh	Vaccinia Venus
- CC1CC(C)CN(c2ncnc3c2cnn3Cc2ccc(Cl)cc2)C1 (stereo not given)
    .	-22.5%
- O=C(NCc1ccc2c(c1)OCO2)C1CC(=O)N(C2CCCCCC2)C1 (stereo not given)
    -13.3%	10.7%
- Cc1noc(C)c1COc1ccccc1C(=O)N(C)CC(=O)Nc1ccc(F)cc1
    -10.5%	1.1%
- CCCC(=O)Nc1sc(C)c(C)c1C#N
    -8.6%	-13.2%
- CCOC(=O)N1CCC(N2CCCC(CO)(Cc3cccc(Cl)c3)C2)CC1 (stereo not given)
    i	-12.2%
- O=c1[nH]c(O)c(N=Nc2ccc(S(=O)(=O)N3CCOCC3)cc2)c(=O)[nH]1
    i	-3.4%
- CC1CC(C)CN(C(=O)CSc2nnc(-c3ccc(F)cc3)o2)C1 (stereo not given)
    -9.9%	-0.8%
- CCc1ccc(Oc2c(C(F)(F)F)oc3c(CN4CCN(C)CC4)c(O)ccc3c2=O)cc1
    -14.9%	-24.6%
- CC(=O)Nc1nonc1-c1nnc(SCc2ccc(C)cc2)n1C
    6.1%	-10.3%
- O=C1C2C3C=CC(CC3)C2C(=O)N1c1ccccc1[N+](=O)[O-] (stereo not given)
    -13.5%	-7.3%
- CCN(CCCNC(=O)c1cc2c(=O)n(CC)c3ccccc3c2s1)c1cccc(C)c1
    -16.4%	-15.2%
- CCC(=O)Nc1ccc(C(=O)OCC(=O)c2cccs2)cc1
    -10.7%	-4.6%
- CC(OC(=O)CCC1CCCC1)C(=O)Nc1ccccc1[N+](=O)[O-] (stereo not given)
    -18.8%	-10.2%
- CC(=C/c1ccccc1)/C=N/NC(=O)c1ccc2nc[nH]c2c1
    -14.9%	-14.2%
- CCOC(=O)c1ccc(-c2c(-c3ccccc3OC)sc3ccc(OC)cc23)cc1F
    -20.4%	-6.0%

Additional records.
Under each structure – VACV mCherry inh	Vaccinia Venus
- O=C(CN1CCOCC1)Nc1ccc(Cl)cn1
    -14.1%	-9.5%
- N#Cc1ccccc1Cn1c(=O)n(Cc2ccc(C(=O)NC3CCN(Cc4ccccc4)CC3)cc2)c(=O)c2ccccc21
    -28.0%	-25.1%
- CCOP(=S)(OCC)N1CCOCCOCCN(P(=S)(OCC)OCC)CCOCCOCC1
    -3.0%	1.6%
- CCOC(=O)C1=C(C(=O)OCC)N(Cc2ccccc2)CCC1=O
    -5.5%	-3.5%
- Cc1ccc(-c2nn(-c3ccccc3)cc2C2CC(c3ccccc3)=NN2C(=O)CCC(=O)O)cc1 (stereo not given)
    -0.6%	-19.6%
- CN(CCOc1ccc(Cl)cc1)Cc1cccc(S(=O)(=O)N(C)C)c1
    -7.9%	-26.5%
- COc1ccc(/C=N/NC(=O)C(=O)NCc2cccnc2)cc1
    -16.8%	-12.9%
- COc1cc(C(=O)NCc2cn3ccccc3n2)cc(OC)c1OC
    -6.5%	-4.5%
- CCCOC(=O)c1c(NC(=O)C2CCCO2)sc(C(=O)OC)c1C (stereo not given)
    -7.0%	-14.3%
- CC(=O)Nc1ccc(SC[C@H](Cc2ccccc2)N2CC[C@@H](C)CCC2=O)cc1
    -11.2%	-24.2%&-9.7%
- Nc1nnc2c(n1)[nH]c1ccccc12
    -13.3%	-0.2%
- Cn1nnc(NC(=S)NC(=O)c2ccc(-c3ccc(Br)cc3)o2)n1
    i	-3.6%
- CCN(CC)S(=O)(=O)c1cccc(C(=O)NCC2(N3CCOCC3)CCCCC2)c1
    -21.3%	-21.3%
- O=[N+]([O-])c1cccnc1Sc1ccccc1Cl
    -13.1%	-7.1%
- CCCCN1C(=O)CC(N2CCOCC2)C1=O (stereo not given)
    -14.1%	-7.0%

(further entries)
Under each structure – VACV mCherry inh	Vaccinia Venus
- CSc1ccc(CN2CCC(C)(Oc3ccccc3C)C2)cc1 (stereo not given)
    2.5%	-7.9%
- O=C(C(Cc1ccccc1)n1cccc1)N1CCN(c2cccc(Cl)c2)CC1 (stereo not given)
    -12.3%	-20.8%
- CC(C)(C)c1ccc(-c2nnc(SCC(=O)Nc3sc4c(c3C#N)CCCC4)o2)cc1
    i	-1.1%
- CC(C)(CO)Cc1cc(C(C)(C)C)c(O)c(C(C)(C)C)c1
    -20.1%	?
- O=C(Cn1cc(C(F)(F)F)ccc1=O)Nc1ccc(N2CCOCC2)cc1
    1.2%	-3.4%
- C=CCn1c(COc2ccc(F)cc2)nnc1SCC(=O)NC(=O)NCc1ccco1
    -11.0%	-17.3%
- Cc1ccc(Nc2c(-c3ccc(N4CCOCC4)cc3)nc3cnccn23)cc1
    ?	-18.1%
- Cc1ccc2onc(CC(=O)N3CCN(c4ccccc4)CC3)c2c1
    8.6%	-1.3%
- CC(C)C1CC2=C(C(=O)OC(C)(C)O2)C(c2ccc(F)cc2)O1 (stereo not given)
    26.0%	17.4%
- CC(C)N(Cc1ccccc1)C(=O)COC(=O)c1c(F)cccc1F
    i	1.4%
- COc1cc(NC(=O)C/C(C)=N/NC(=O)C(=O)NCCO)c(OC)cc1Cl
    i	-11.1%
- CC(C)(C)c1ccc(NC(=O)COC(=O)c2ccc3ncsc3c2)cc1
    -17.4%	-18.2%
- Cc1ccc(S(=O)(=O)NCc2ccco2)cc1C
    -3.2%	-8.8%
- Fc1ccc(OCc2nnc(-c3ccccc3Br)o2)c(Cl)c1
    i	-1.5%
- CCOC(=O)c1c(N)ssc1=S
    -4.9%	-12.4%
- O=C(CCS(=O)(=O)c1nc(-c2ccc3c(c2)OCO3)cc(C(F)(F)F)n1)Nc1ccc(F)cc1F
    ?	-14.6%
- O=C(NNC1=NC2(CCCC2)Cc2ccccc21)c1cccnc1
    -2.7%	-8.6%

Screening data deposited in PubChem by National Center for Advancing Translational Sciences (NCATS).
